VDR inhibitor: Inhibitors of the vitamin D receptor (VDR): qHTS | Vitamin D3 receptor (Homo sapiens), P11473 | VDR-SRC2-3 peptide fluorescence polarization, 2 h | Potency, µM, for the others: max response, negative = inhibition, usual class: inhibitors | hit rate 0.93% among 400,000; active means well fitted inhibition curve with a large enough effect; inconclusive means small, poorly fitted or top-dose-only effect, or another doubt; inactive means no such curve, though single readings can be large or run the other way; further: series mostly up to about 120 µM
Target sequence (P11473 whole entry, looked up): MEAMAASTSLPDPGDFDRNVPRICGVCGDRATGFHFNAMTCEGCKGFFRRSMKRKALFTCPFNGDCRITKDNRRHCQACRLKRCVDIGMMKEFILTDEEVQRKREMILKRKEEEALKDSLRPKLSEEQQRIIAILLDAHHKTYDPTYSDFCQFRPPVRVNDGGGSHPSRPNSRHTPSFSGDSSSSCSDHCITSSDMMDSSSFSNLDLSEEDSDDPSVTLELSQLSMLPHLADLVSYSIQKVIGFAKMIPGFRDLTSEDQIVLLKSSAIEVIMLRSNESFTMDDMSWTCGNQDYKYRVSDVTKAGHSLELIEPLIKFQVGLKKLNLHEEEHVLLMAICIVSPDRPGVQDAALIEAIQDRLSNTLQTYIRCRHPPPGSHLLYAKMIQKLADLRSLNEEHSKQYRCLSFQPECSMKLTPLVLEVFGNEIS
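Measured by FP: displacement of SRC2-3 coactivator peptide from VDR by library compounds, following a two-hour ambient incubation.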
* marks the source's active call; other numbers are inactive results; ? = inconclusive; [ ] = dose if it differs, or a comment. On the % scale 0 is the no-effect control and ±100 the full control effect; potency means the concentration at half of the fitted maximal effect.

VDR inhibitor	structure
17%	COc1ccc(C(=O)Nc2cccc(-c3ccc4nncn4n3)c2)cc1
94%[activator]	CC1CCCN(S(=O)(=O)c2ccc(C(=O)Nc3sc4c(c3C(N)=O)CCN(C)C4)cc2)C1 (centres undefined)
32µM*	CSc1ccccc1C(=O)C1CCCN(C(=O)c2cncs2)C1 (centres undefined)
-3%	N#CC(c1ccccc1)c1ccc2c(C(F)(F)F)cc(C(F)(F)F)nc2n1 (centres undefined)
-4%	CCOC(=O)N1CCN(C(=O)Nc2cccc3ccccc23)CC1
11%	COC(=O)c1cc(S(=O)(=O)N2CCCCC2)ccc1N1CCOCC1
-8%	CC1CCCCN1S(=O)(=O)c1ccc(C(=O)Nc2nnc(-c3ccccc3Cl)o2)cc1 (centres undefined)
-12%	Cc1c(NC(=O)CSc2nc3ccccc3c(=O)n2C(C)C)c(=O)n(-c2ccccc2)n1C
1%	O=C(NNC(=O)c1ccc(O)cc1O)c1ccc(-c2ccccc2)cc1
-14%	CCCn1c(C2CC(=O)N(c3cc(OC)ccc3OC)C2)nc2ccccc21 (centres undefined)
6%	COC(=O)c1ccc(N)c(N=CC2=C(O)CC(C)(C)CC2=O)c1
-20%	CCOC(=O)CC(=O)CSc1nc2c(c(-c3cccs3)c1C#N)CCC2

4 compounds from above, arranged by heavy-atom count, high to low:
VDR inhibitor	structure
-12%	Cc1c(NC(=O)CSc2nc3ccccc3c(=O)n2C(C)C)c(=O)n(-c2ccccc2)n1C
-8%	CC1CCCCN1S(=O)(=O)c1ccc(C(=O)Nc2nnc(-c3ccccc3Cl)o2)cc1 (centres undefined)
-20%	CCOC(=O)CC(=O)CSc1nc2c(c(-c3cccs3)c1C#N)CCC2
-4%	CCOC(=O)N1CCN(C(=O)Nc2cccc3ccccc23)CC1

6 records picked at random from the list so far:
VDR inhibitor	structure
-8%	CC1CCCCN1S(=O)(=O)c1ccc(C(=O)Nc2nnc(-c3ccccc3Cl)o2)cc1 (centres undefined)
1%	O=C(NNC(=O)c1ccc(O)cc1O)c1ccc(-c2ccccc2)cc1
-12%	Cc1c(NC(=O)CSc2nc3ccccc3c(=O)n2C(C)C)c(=O)n(-c2ccccc2)n1C
17%	COc1ccc(C(=O)Nc2cccc(-c3ccc4nncn4n3)c2)cc1
-14%	CCCn1c(C2CC(=O)N(c3cc(OC)ccc3OC)C2)nc2ccccc21 (centres undefined)
94%[activator]	CC1CCCN(S(=O)(=O)c2ccc(C(=O)Nc3sc4c(c3C(N)=O)CCN(C)C4)cc2)C1 (centres undefined)

(list continues)
VDR inhibitor	structure
-7%	COc1cccc(N2CCN(c3ncnc4c3c(-c3ccccc3)cn4-c3ccc(F)cc3)CC2)c1
-9%	CCN1C(=O)[C@H]2[C@@H](c3ccc(-c4ccc5c(c4)OCO5)c(OC)c3)N[C@@](Cc3ccccc3)(C(=O)OC)[C@H]2C1=O
8%	CCCCC1C(C#N)=C(C)NC2=C1C(=O)CC(C)(C)C2 (centres undefined)
1%	Clc1cccc(NCc2nnc(SCc3ccc(Cl)cc3Cl)o2)c1
-16%	CC(C)NC(=O)N1CCN(c2ccncc2S(=O)(=O)N2CCCCC2)CC1
-15%	C#CCOCCOCCOCCNc1nc(N2CCOCC2)nc(N2CCN(C(=O)CCCCCCCCCCNC(=O)[C@@H](CCC(=O)O)n3cc(CCCCCN)nn3)CC2)n1
79µM*	Cc1ccccc1N1C(S)=C(C#N)C(=O)NC1c1ccco1 (centres undefined)
2%	Fc1ccc(CSc2ccc3nnc(-c4ccccn4)n3n2)cc1
-1%	COC(=O)CN1C(=S)N(c2ccc(OC)cc2)C(=O)C1CC(=O)Nc1ccc(F)cc1 (centres undefined)
16%	CCOC(=O)c1c(C)[nH]c(C)c1C(=O)COC(=O)c1cc(OC)c(OC)cc1OC
-22%	CCCC[C@H]1C2=C3[C@@H](CC(C(=O)OC)=C[C@@H](C(=O)OC)[C@H]3C(C)(C)C2=O)n2c(=O)n(C)c(=O)n21
-9%	CCN(CC)CCn1nc2c3c(cccc3c1=O)-c1ccccc1-2
1%	CC(=O)CC(=O)[C@@]1(O)CC[C@@H]2[C@@H]3C=C(C)C4=CC(=O)CC[C@@H]4[C@H]3CC[C@]21C
-17%	C=CCNC(=O)c1onc(CSc2cccc(OC)c2)c1C(=O)O
-4%	CCC(C)NCC(=O)Nc1sc2c(c1C(N)=O)CCC2 (centres undefined)
3%	Cc1cc2[nH]c3c(c[n+](C)c4ccccc34)c2cc1C
9%	COc1ccc(-c2nc3nc(C)cc(Nc4cccc(C(F)(F)F)c4)n3n2)cc1
-13%	O=C(OCc1ccccc1)N1CCC2CC1c1cc(Cl)ccc12 (centres undefined)
7%	O=C(Nc1cccc(NC(=O)c2ccco2)c1)c1cnccn1
?	OCCN1CCN(C(=S)c2ccc(-c3ccccc3)cc2)CC1
7%	O=C1CC(c2ccccc2)c2c(n3ncnc3[nH]c2=O)N1 (centres undefined)
4%	CCOc1ccccc1N(C(=O)CNC(=O)c1ccco1)C(C(=O)NC(C)(C)C)c1ccncc1 (centres undefined)
-7%	C=CCON1C(=O)C(=O)N(OCC=C)[C@H]2CCCC[C@H]21
-6%	C#CC(CC)(CC)NC(=S)Nc1cccc(C(C)=O)c1

In the list so far, these have a COOH group:
VDR inhibitor	structure
-15%	C#CCOCCOCCOCCNc1nc(N2CCOCC2)nc(N2CCN(C(=O)CCCCCCCCCCNC(=O)[C@@H](CCC(=O)O)n3cc(CCCCCN)nn3)CC2)n1
-17%	C=CCNC(=O)c1onc(CSc2cccc(OC)c2)c1C(=O)O

Additional records:
VDR inhibitor	structure
2%	Cc1c(NC(=O)c2cc(=O)c3cc(Cl)ccc3o2)c(=O)n(-c2ccccc2)n1C
-3%	Cc1cc(C)cc(NC(=O)NCCc2c(C)nn(C)c2C)c1
7%	CC(C)CNC(=O)C(=O)Nc1ccc2c(c1)N(S(=O)(=O)c1cccs1)CCC2
-5%	Cc1ccc(OC(=O)c2c(C)nn(-c3ccccc3)c2C)cc1
5%	CN(C)S(=O)(=O)c1cccc(NC(=O)CCc2nc3sc4c(c3c(=O)[nH]2)CCCC4)c1
-2%	CC(OC(=O)C1CCCCC1)C(=O)Nc1cccc(Cl)c1 (centres undefined)
17%	O=C(CCc1ccccc1Cl)NC1CCCN(c2ccc(C(F)(F)F)cn2)C1 (centres undefined)
?	O=C(CSc1ccccc1Cl)c1ccco1
5%	O=C(c1ccco1)N1CCC(n2nnc3ccccc32)CC1
6%	Cc1ccc(C)c(C(=O)CCC(=O)NNC(=O)Cn2nc(C)cc2C)c1
?	Cc1nn(Cc2ccccc2)c2c1C(c1ccc(Cl)cc1)C(C#N)=C(N)O2 (centres undefined)
19%	CC1=C(C(=O)OCC(C)C)C(c2cc3c(cc2Br)OCO3)NC(=O)N1C (centres undefined)
-5%	O=C(CN1C(=O)C2(SCC(=O)N2c2cccc(F)c2)c2ccccc21)NCCc1ccccc1 (centres undefined)
26%	CCN(CC)CCCNc1oc(-c2cccc(Cl)c2)nc1C#N
5%	CCn1c(SCC(=O)N2CCCc3ccccc32)nnc1-c1c[nH]c2ccccc12
6%	CCCCN(CC(=O)NCc1ccc(F)cc1)C(=O)c1ccco1
-11%	COc1ccc(CNS(=O)(=O)c2ccc(Br)s2)cc1
-1%	COc1cc(OC)cc(C(=O)OCC(=O)Nc2ccc(F)cc2F)c1
3%	CCOc1ccc(CCNC(=O)CCNS(=O)(=O)c2ccc3c(c2)CCN3C(C)=O)cc1OCC
19%	Cc1cc(C)c(C#N)c(SCc2nc3ccccc3[nH]2)n1
8%	C[C@@H]1CN([C@H](C)CO)C(=O)c2cc(NC(=O)Cc3ccccc3)ccc2O[C@H]1CN(C)Cc1ccc(Oc2ccccc2)cc1
5%	CC(=O)Nc1ccc(S(=O)(=O)NC2(C(F)(F)F)C(=O)Nc3c2c(=O)[nH]c(=O)n3-c2ccc(C)cc2)cc1 (centres undefined)
3%	CC(C)=CCC[C@](C)(O)C1CC[C@]2(C)[C@@H]1CC[C@@H]1[C@@]3(C)CCC(=O)C(C)(C)[C@@H]3CC[C@]12C (some centres undefined)
-7%	CCS(=O)(=O)n1nc(-c2ccc(OC)cc2)nc1SC
5%	CCCOc1cccc(C(=O)NC(=S)Nc2cccc(C(F)(F)F)c2)c1
3%	COc1ccc(NS(=O)(=O)c2cccc(C(=O)N/N=C/c3ccccc3OC)c2)cc1
2%	COc1cccc(Nc2ncc3nc(-c4ccc(F)cc4)c(=O)n(C)c3n2)c1
-14%	COc1ccc(CC(=O)NCc2nnc(SCC(=O)Nc3ccc(OC)cc3)n2C)cc1
-15%	COc1ccc(OC)c(NC(=O)CCc2nnc3ccc(N4CCC(C)CC4)nn23)c1
-2%	O=C(NC(CO)Cc1ccccc1)c1ccccc1 (centres undefined)
11%	Cc1cc2cc(C)c3nnc(SCC(=O)NCc4ccc5c(c4)OCO5)n3c2cc1C
16%	COc1ccc(NC(=O)CC(=O)Nc2ccc(OC)cc2OC)c(OC)c1
7%	Cc1ccccc1CNCCCSc1nnnn1C
-2%	CC(C)C(=O)Nc1ccc2c(c1)nc(CCN1CCN(c3ccccn3)CC1)n2C
9%	CSCCC(NC(N)=O)C(=O)NCc1ccc(Cl)cc1 (centres undefined)
7%	O=C(CN1C(=O)CC(c2ccccc2)=Nc2ccccc21)NCc1ccccc1
-11%	CC(=O)c1cccc(NC(=S)N2CCN(S(=O)(=O)c3ccccc3)CC2)c1
-26%	Cc1cccc(NC(=O)c2cnn(-c3ccc(F)cc3)c2C2CCNCC2)c1C
-15%	O=C(CNc1cccc([N+](=O)[O-])c1)NC(=O)NC1CCCCC1
9%	CCOC(=O)c1sc(NC(=O)COC(=O)CNC(=O)c2ccco2)c(C(=O)OCC)c1C
-4%	O=C(Nc1ccncc1)c1cccc(S(=O)(=O)N2CCN(c3ccc(F)cc3)CC2)c1
1%	Cc1cc(C)c2ccc3c(C)c(C)nc3c2[nH]1
5%	O=C(COC(=O)[C@@H]1CCCN1C(=O)c1cccs1)NCCc1ccccc1
-10%	COc1ccc(NC(=O)C(=O)NCCc2ccc(OC)c(OC)c2)c(OC)c1
8%	Cc1ccc(CNC(=O)C2CCN(c3nc4ccccc4n(C)c3=O)CC2)cc1
-12%	O=C(Nc1ccnn1C1CCN(CC2CC=CCC2)CC1)c1ccccc1 (centres undefined)
-5%	c1ccc(COc2cncc(-c3cccnc3)c2)cc1
-23%	Cn1nc(C(F)(F)F)c(-c2ccc(Br)cc2)c1NC(=O)C1CCC1C(=O)O (centres undefined)
4%	Cc1ccc(NC(=O)c2ccc(CNc3c(N4CCOCC4)c(=O)c3=O)cc2)cc1
11%	Cc1cc(C(C)(C)C)ccc1OCCn1ccnc1
-3%	CCC(C)/C(C)=N/NC(=O)c1cn(-c2ccccc2)nc1-c1ccccc1 (centres undefined)
6%	Cc1ccc(NC(=O)CN(C)C(=O)CSc2nnc(C(F)(F)F)n2C)cc1
-6%	COc1ccc(/C=N/n2c(-c3ccco3)nc3ccccc3c2=O)cc1
4%	COc1ccc(-n2nnnc2CNC(=O)c2ccc3ccccc3c2)cc1
-12%	CCN(CC)S(=O)(=O)c1ccc(C(=O)NCCOC(=O)c2ccc(F)cc2F)cc1
-3%	O=C(c1ccc([N+](=O)[O-])s1)N1CCN(c2ccccn2)CC1
-2%	Nc1c(Br)cc(Br)c2cccnc12
7%	CCCc1nc2c(o1)CC(CC(C)SCC)CC2=O (centres undefined)
-8%	CC(C)NC(=O)C1CCN(C(=O)N(C)C)CC1
4%	CCOc1c(C#N)c(C#N)c2nc(C)cc(C)n12

More results:
VDR inhibitor	structure
1%	NCCCC[C@@H]1NC(=O)c2cc([N+](=O)[O-])cc(I)c2SC[C@@H](C(N)=O)NC(=O)[C@H](Cc2ccc(O)cc2)NC1=O
4%	CC(C)CC(=O)NC(=S)N1CCN(c2ccc([N+](=O)[O-])cc2Cl)CC1
1%	COc1ccccc1NC(=O)CSc1nnc(CC(=O)Nc2ccccc2)n1C
-2%	CSc1ncc(C(=O)Nc2ccccc2)cn1
-7%	O/C(=C\Sc1nnc(Cc2ccccc2)o1)c1ccc(F)cc1
8%	Cc1cccc2cc3c(NC(=O)CC(C)C)nn(C)c3nc12
-4%	O=C1c2nc3cc(-c4ccccc4)[nH]n3c(=O)c2CN1Cc1ccccc1
-5%	CCOc1cc(C)c(-c2onc(C(F)(F)F)c2-c2csc(C)n2)c(O)c1
-4%	O=C(C1COc2ccccc2O1)N1CCCC1 (centres undefined)
-14%	Cc1ccc(-c2csc(NC(=O)/C=C/c3cccs3)n2)cc1C
?	O=C(Nc1cc(NC(=O)c2ccccc2)c(C(=O)O)cc1C(=O)O)c1ccccc1
0%	Cc1ccccc1OCC(=O)OCC(=O)NCC1CCCCC1
-8%	CCOP(=O)(OCC)c1nc(Cc2ccccc2)oc1NCc1ccccc1
-10%	CCN(CC(=O)Nc1c(F)cccc1F)C(=O)c1ccccn1
4%	CCOC(=O)C(NC(=O)c1ccccc1OCC)(Nc1ncccn1)C(F)(F)F (centres undefined)
-6%	COc1ccc(CCNC(=O)c2ccc(N(C)S(=O)(=O)c3ccccc3)cc2)cc1
-1%	CCOC(=O)Cn1c(-c2nonc2NC(=O)c2ccccc2F)nc2ccccc21
5%	O=C(Cn1c(N2CCN(c3ccccc3)CC2)nc2ccccc21)c1ccccc1
13%	NS(=O)(=O)c1ccc(CCNC(=O)C2CCCO2)cc1 (centres undefined)
-4%	Cc1cc(O)cc(=O)o1
15%	Cc1csc(NC(=O)CSc2nnc(-c3ccc(S(=O)(=O)N4CCCC4)cc3)o2)n1
1%	NC1=NC[C@@H](Cc2ccc(O)cc2)N1CCCCC1CCCCC1
-1%	Cn1cnc(S(=O)(=O)N2CCC(C(=O)NCc3ccc(Cl)cc3)CC2)c1
-6%	COC(=O)c1ccc(CN2C(=O)NC3(CCCCC3)C2=O)cc1
-4%	CCOC(=O)c1cnc2cc(C(F)(F)F)ccc2c1Nc1ccc(F)cc1F
-2%	O=C(CC1C(=O)NCCN1C(=O)Nc1ccc(F)cc1F)Nc1cc(Cl)ccc1Cl (centres undefined)

This is a subset; count on the stated rates, not on these rows.
